CBX7 AlphaScr = inhibitors of human CBX7 binding to H3K27me3 peptide. O95931. AlphaScreen His6-CBX7 / biotin-H3K27me3 peptide binding; hits give low values. normalised signal (fraction of DMSO) (no concentration beside the values). actives 1.1% (n = 66,000). AID 1224903; in the data active means normalised signal below about 0.5;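 further: 100 nL library stock added to about 20 µL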
Target sequence (O95931 whole entry, looked up): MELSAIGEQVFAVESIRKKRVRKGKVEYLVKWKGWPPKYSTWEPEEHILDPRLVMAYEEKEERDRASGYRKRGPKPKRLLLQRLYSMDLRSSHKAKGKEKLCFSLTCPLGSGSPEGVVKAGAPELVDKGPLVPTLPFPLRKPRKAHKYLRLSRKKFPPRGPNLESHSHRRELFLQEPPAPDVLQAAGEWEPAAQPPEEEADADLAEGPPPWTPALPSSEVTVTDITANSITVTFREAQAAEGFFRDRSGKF
CBX7 AlphaScr z-score = further read-out of CBX7 AlphaScr, marked with its call; z-score; measured here: z-score of CBX7 signal; some inactives read as strong as hits; reference of the scale not given here;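 same signal on another scale; lower means less binding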
Numbers without * were called inactive; & = joins results of further samples.

Values run as follows: CBX7 AlphaScr, CBX7 AlphaScr z-score
> CCC(C)Sc1oc(-c2cccs2)nc1S(=O)(=O)c1ccc(Cl)cc1 (configuration not stated)
    1.1, 0.74
> Cc1nc2cc(-c3ccccc3)nn2c(C)c1CCC(=O)O
    1.04, 1.17
> CC(C)(c1ccccc1)c1ccc(OCC(O)CN2CCCC2)cc1 (configuration not stated)
    1.02, 0.58
> Cc1ccc(CNC(=O)C2(NS(=O)(=O)c3cccc4cccnc34)CCCCC2)cc1
    1.01, 0.559
> Cc1ccc(NS(=O)(=O)c2ccc3c(c2)CCN3C(=O)C2CCC2)c(Br)c1
    1, 0.0406
> Cc1cc(=O)n2nc(N3CCC(C(=O)N4CCN(c5ccccc5)CC4)CC3)sc2n1
    0.939, -3.03
> Clc1ccc(-c2nc3cnccn3c2Nc2ccc3c(c2)OCCO3)cc1
    1.07, 0.693
> CCCCc1nc(N2CCCCC2)c(C#N)c2c1CCCC2
    1.11, 3.31
> Cc1nc2cc(-c3ccccc3)nn2c(C)c1CCC(=O)NCCN1CCCC1
    0.993, -0.236
> Cc1ccc(-c2nc(-c3cccnc3)no2)c(Cl)c1
    1.06, 0.555
> Cc1ccc(Cn2nnc3c(=O)n(CC(=O)Nc4ccc(Cl)cc4)cnc32)cc1
    0.806, -3.18
> COc1ccc2nc(N3CCC(C(=O)NCCCN4CCCC(C)C4)CC3)sc2c1 (configuration not stated)
    1.11, 1.91
> O=C(CCc1nc(-c2ccccc2F)no1)NCc1ccc(F)cc1Cl
    0.835, -2.54
> COc1ccccc1OCc1nc(C#N)c(NCc2ccccc2Cl)o1
    0.811, -2.4
> CCOc1ccc(N(CC(=O)OC)S(=O)(=O)c2ccc3[nH]c(=O)c(=O)[nH]c3c2)cc1
    1.03, 0.393
> Cc1cccc(CCNC(=O)Cn2nc(Cc3cccnc3)c3ccccc3c2=O)c1
    0.948, -0.0681
> Cc1cc(C)c(S(=O)(=O)N(CCCN2CCOCC2)Cc2cccs2)c(C)c1
    0.726, -3.16
> CCC1CCCCN1CCCNC(=O)c1cc2c(-c3ccc(OC)c(OC)c3)nn(C)c2s1 (configuration not stated)
    1.14, 1.79
> Cc1cc(Cl)ccc1OCC(=O)NCc1ccccn1
    1.05, 0.442
> Cc1nc(N2CCCCC2)c2c(C)c(C(=O)N3CC(C)CC(C)C3)sc2n1 (configuration not stated)
    0.923, -1.11

The closing seven records of the section before lead into the next:
Values run as follows: CBX7 AlphaScr, CBX7 AlphaScr z-score
> COc1ccccc1OCc1nc(C#N)c(NCc2ccccc2Cl)o1
    0.811, -2.4
> CCOc1ccc(N(CC(=O)OC)S(=O)(=O)c2ccc3[nH]c(=O)c(=O)[nH]c3c2)cc1
    1.03, 0.393
> Cc1cccc(CCNC(=O)Cn2nc(Cc3cccnc3)c3ccccc3c2=O)c1
    0.948, -0.0681
> Cc1cc(C)c(S(=O)(=O)N(CCCN2CCOCC2)Cc2cccs2)c(C)c1
    0.726, -3.16
> CCC1CCCCN1CCCNC(=O)c1cc2c(-c3ccc(OC)c(OC)c3)nn(C)c2s1 (configuration not stated)
    1.14, 1.79
> Cc1cc(Cl)ccc1OCC(=O)NCc1ccccn1
    1.05, 0.442
> Cc1nc(N2CCCCC2)c2c(C)c(C(=O)N3CC(C)CC(C)C3)sc2n1 (configuration not stated)
    0.923, -1.11
> COc1ccc(C(=O)Nc2ccc3nc(N4CCOCC4)cc(C)c3c2)cc1
    1.08, 1.96
> Cc1nc2ncnn2c(C)c1CCC(=O)Nc1ccc(S(=O)(=O)N2CCCCCC2)cc1
    0.997, -0.0516
> Cc1ccc2cc(CCNC(=O)C(C)C)c(=O)[nH]c2c1
    1.07, 3.16
> Cc1cccc(OCc2nnc(-c3ccc(OCc4cccc(Br)c4)cc3)o2)c1
    1.17, 0.597
> O=C(COc1nsnc1N1CCOCC1)Nc1ccc(Cl)cc1
    0.893, -0.785
> CCOC(=O)C1CCN(C(=O)Cn2cc3c(n2)CCCC3)CC1
    1.07, 2.28
> Cc1cc(NC(=O)CCN2C(=O)c3ccccc3C2=O)no1
    1.01, 0.58
> Cc1ccc(-n2c3c(cc(C(=O)NCCCO)c2=O)C(=O)CC(C)(C)C3)cc1
    1, 0.00678
> O=C1c2ccc([N+](=O)[O-])cc2C(=O)N1c1ccc2nc(-c3ccccc3)[nH]c2c1
    1.07, 0.868
> CCOc1ccc(NCc2ccccc2NS(=O)(=O)c2ccc(C)cc2)cc1
    0.634, -0.841
> COc1ccc(-n2c3c(cc(C(=O)NC(C)(C)C)c2=O)C(=O)CC(C)(C)C3)cc1
    1.06, 0.667
> CCOC(=O)C1CCN(c2c(N3CCN(CC)CC3)c(=O)c2=O)CC1
    1.01, 0.206
> Cc1ccc2c(c1)c(-c1ccccc1)nc1nnnn12
    0.974, -0.453
> CC(NC(=O)C(=O)NCc1cccnc1)C(c1cccs1)N1CCN(C)CC1 (configuration not stated)
    0.953, -1.06
> COc1ccc(-n2c(C)nc3c(cnn3-c3ccc(C)cc3)c2=O)cc1
    0.791, -3.21
> CC1CCC(NC(=O)CN2C(=O)CC(C)(C)S(=O)(=O)c3ccccc32)CC1 (configuration not stated)
    1.01, 0.158
> COc1ccc(N2CCN(c3nc4cccnc4s3)CC2)cc1
    0.919, -2.06
> CCOC(CNC(=O)C1CCCN(Cc2nc(-c3ccc(CC)cc3)oc2C)C1)OCC (configuration not stated)
    1, 0.0861
> CCCCn1c(=O)c(-c2nc3ccccc3c(=O)[nH]2)c(O)c2ccccc21
    1.04, 0.575
> CNC(=O)c1c(-c2ccccc2)c2cc(OC)ccc2n1CCN(C)C
    1.06, 0.0749
> CCc1ccccc1NC(=O)CSc1nnc(CC)c(CC)n1
    1.05, 1.77
> O=C(Nc1c2c(nn1-c1ccc(Cl)cc1)CSC2)c1ccc(F)cc1
    1.07, 1.67
> CNC(=O)c1ccc(Nc2nnc(-c3ccc(C)c(S(=O)(=O)N(C)C)c3)c3ccccc23)cc1
    1.04, 1.47
> Cc1nc(Nc2ccc(F)cc2)c2oc3ccccc3c2n1
    1.05, 0.573
> Cc1ccc(CCNC(=O)c2ccc(CNc3c(N4CCC(C)CC4)c(=O)c3=O)cc2)cc1
    1.02, 0.695
> Cc1ccc(-c2noc(CN3CCN(c4ccccc4F)CC3)n2)cc1
    1.05, 1.8
> Cc1nc2cc(-c3cccc(F)c3)nn2c(C)c1CCC(=O)NC(C)c1cccs1 (configuration not stated)
    0.991, -0.32
> O=C(N1CCN2CCCC2C1)C12CC3CC(C1)CC(n1cncn1)(C3)C2 (configuration not stated)
    0.985, -0.268
> Cc1ccc(N2Cc3ccccc3OC(C)C2=O)cc1 (configuration not stated)
    1.04, 0.942
> CCOC(=O)c1cc(-c2ccc3c(c2)OCO3)no1
    0.976, -0.417
> CCOc1ccc(-n2c(C)cc(C(=O)CN3CCC(C)CC3)c2C)cc1
    0.893, -1.42
> COCCN1Cc2cccc(C(=O)Nc3cccc(F)c3)c2C1=O
    1.03, 0.0348
> CCOc1ccc2nc(N3CCC(C(=O)NC4CCCC(C)C4C)CC3)sc2c1 (configuration not stated)
    1.01, 0.0382
> Cc1cc(C)cc(NC(=O)CSc2ccc3nnc(-c4ccccc4)n3n2)c1
    1.16, 1.94
> OCc1cn(-c2ccccc2)nc1-c1ccc(F)cc1
    1.02, 0.534
> CCOc1ccc(-n2c(Cc3cc(=O)[nH]c(=O)[nH]3)nnc2SCc2ccccc2Cl)cc1
    1, 0.04
> Cc1cccc(N(C)S(=O)(=O)c2ccc3[nH]cc(C(=O)NCCCN4CCOCC4)c(=O)c3c2)c1
    1.24, 3.09
> COc1ccc(CCNC(=O)c2cn(C3CCCCC3)c(=O)c3c2c2ccccc2n3C)cc1OC
    0.987, -0.315
> CC(O)c1nc2ccccc2n1CCCOc1ccccc1 (configuration not stated)
    1.07, 0.778
> CCN1CCN(S(=O)(=O)c2ccc3c(c2)n(C)c(=O)c(=O)n3C)CC1
    0.986, -0.117
> Cc1nc2ccccc2n1CC(O)Cn1c2ccc(Cl)cc2c2cc(Cl)ccc21 (configuration not stated)
    0.791, -1.31
> COc1cccc(CNC(C)c2ccccc2)c1OCc1ccc(F)cc1 (configuration not stated)
    1.05, 1.68
> CCOc1cc2[nH]c(=O)n(CCCC(=O)N3CCN(c4ccccn4)CC3)c(=O)c2cc1OCC
    1.08, 1.5
> COc1ccc2cc(CCN3C(=O)c4ccccc4C3=O)c(=O)[nH]c2c1
    1.03, 0.827
> COC(=O)c1c(NC(=O)c2ccc(Cl)cc2)sc2c1CCC(C)C2 (configuration not stated)
    1.64, 9.97
> CC(C)N1C(=O)c2ccccc2C1C(=O)NCCc1ccccc1 (configuration not stated)
    1.02, 0.253
> CCN(CC)CCCNC(=O)c1cc(-c2ccc(OC)c(OC)c2)on1
    1.36, 2.82
> CCOC(=O)C1CCN(c2c(N3CCOCC3)c(=O)c2=O)CC1
    1.09, 1.78
> Cc1cccc(C)c1NC(=O)c1cccnc1Oc1ccc(Cl)cc1
    0.858&0.988, -2.19&-0.0136
> O=C(CN1C(=O)CSc2ncccc21)NCc1ccc(Cl)cc1
    1.07, 2.74

Additional records
Values run as follows: CBX7 AlphaScr, CBX7 AlphaScr z-score
> CCOc1ccc(NC(=O)NCCCn2c(C)nc3cc(C)c(C)cc32)cc1
    1.02, 0.608
> CCOC(=O)N1CCN(C(=O)CN2C(=O)CCSc3ccccc32)CC1
    1.15, 2.82
> COc1ccc(C)cc1NC(=O)C1CCC(CNS(=O)(=O)c2cccc3cccnc23)CC1 (configuration not stated)
    0.912, -3.98
> CCOCCCNC(=O)CN1C(=O)CSc2ccc(S(=O)(=O)N3CCOCC3)cc21
    0.999, -0.0244
> Cc1c(CCNC(=O)c2ccc(Cl)cc2)c2ccccc2n1Cc1ccccc1
    0.909, -1.39
> CC1CCCCN1S(=O)(=O)c1ccc2[nH]c(=O)cc(C(=O)NCc3ccc(F)cc3Cl)c2c1 (configuration not stated)
    0.991, -0.177
> O=C(Cc1ccc(NC2=NC3CS(=O)(=O)CC3S2)cc1)NCc1ccccc1 (configuration not stated)
    1.08, 0.903
> COc1cccc(NC(=O)COc2cc(=O)n(C)c3ccccc23)c1
    0.936, -0.976
> COCCNC(=O)c1cc2c(n(-c3ccccc3)c1=O)CCCC2=O
    0.989, -0.045
> COc1ccc(NC(=O)Cn2nc(C)c3ccccc3c2=O)cc1
    1.04, 1.33
> Cc1ccc(C)c(-c2[nH]c(-c3cccc(O)c3)nc2-c2ccccc2)c1
    0.592, -0.406
> CCN(Cc1ccccc1)C(=O)Cn1nc(Cc2ccncc2)c2ccccc2c1=O
    0.931, -1.42
> COCCNC(=O)Cn1nc(Cc2cccnc2)c2ccccc2c1=O
    0.983, -0.41
> O=C(C1CCCN1S(=O)(=O)c1cccc2cccnc12)N1CCN(c2ccc(F)cc2)CC1 (configuration not stated)
    1.07, 2.26
> CCc1ccccc1NC(=O)CCSCC1Nc2cc(C(=O)O)ccc2NC1=O (configuration not stated)
    1.13, 3.19
> CCN1CCN(C(C(=O)NC2CCCCC2)c2ccc(Cl)cc2)CC1 (configuration not stated)
    1.05, 2.34
> CCc1ccccc1NC(=O)c1cnc2cc(C)ccn2c1=O
    1.05, 1.4
> CCCN(C(=O)c1cn(CC(C)C)c(=O)c2cc(OC)c(OC)cc12)c1ccccc1C
    0.981, -0.807
> Cc1ncc2c(c1OC(=O)c1ccccc1)COC(C)(C)OC2
    1.11, 1.19
> Cc1ccn2c(Nc3ccccc3)c(-c3cccnc3)nc2c1
    0.942, -2.17
> CCS(=O)(=O)NCCc1cc2c(C)ccc(C)c2[nH]c1=O
    1.05, 1.06
> O=C1CC(C(=O)NC2CCCCC2)(c2cccs2)N1c1ccc(F)cc1 (configuration not stated)
    0.953, -1.17
> COc1ccccc1-c1cc2nc(C)c(CCC(=O)Nc3ccc(Cl)cc3)c(C)n2n1
    1.08, 3.18
> COc1cccc(CNC(=O)C2CCC(CNS(=O)(=O)c3cccc4cccnc34)CC2)c1 (configuration not stated)
    1, 0.0116
> COc1ccc(NC(=O)CCn2nc(-c3ccc(C)cc3)c3ccccc3c2=O)cc1
    0.956, -1.31
> Cc1c(C(=O)NC2CCCCC2)oc2ccc(S(=O)(=O)N3CCC4(CC3)OCCO4)cc12
    0.963, -0.377
> O=C(CCc1cn(Cc2ccccc2)c2ccccc12)NCc1ccccc1Cl
    0.489*, -8.83*
> Cc1cccc(NC(=O)C(=O)NCCc2c[nH]c3ccccc23)c1
    1.02, 0.267
> Cc1nc(NCCCN2CCOCC2)c2c3c(sc2n1)CCCC3
    0.519, -9.5
> COc1ccc(N2CCN(c3cc(=O)n(-c4ccc(OC)cc4)c(=O)[nH]3)CC2)cc1
    1.02, 0.369
> Cc1cccc(-c2nc(CSCC(=O)NC3CCCCC3)c(C)o2)c1
    1.11, 2.1
> COc1cccc(-c2nc(CSCC(=O)NCc3ccccc3Cl)c(C)o2)c1
    1.19, 1.73
> Cc1ccc(CNC(=O)c2cc(S(=O)(=O)N3CCC(C)CC3)ccc2F)cc1
    1.08, 0.869
> Cc1ccccc1NC(=O)Cn1cc(S(=O)(=O)c2ccc(F)cc2)c(=O)c2ccccc21
    0.868, -2.16
> Cc1cccc(C)c1OCC(=O)N(Cc1cccs1)C1CCS(=O)(=O)C1 (configuration not stated)
    1.26, 2.36
> COc1ccc(-n2c3c(cc(C(=O)Nc4ccccc4Cl)c2=O)C(=O)CC(C)(C)C3)cc1
    0.99, -0.328
> O=c1[nH]c2ccccc2nc1Cc1ccc(Br)cc1
    0.985, -0.36
> COc1ccc(-c2noc(CCC(=O)Nc3ccc(Cl)cn3)n2)cc1
    1.04, 0.0411
> O=C(NCC1COc2ccccc2O1)c1cc(=O)[nH]c2ccc(S(=O)(=O)N3CCCCCC3)cc12 (configuration not stated)
    0.994, -0.0783
> CC(C)Cc1cc(C(=O)Nc2cccnc2Cl)no1
    1.08, 2.47

This is a subset; the hit share may differ from the screen's.
